# RN4220 kill – S. aureus RN4220 growth inhibition; 330,000 compounds, 0.33% hits; OD600, 16 h; AID 1259311; inhibition, % (concentration not given with the values);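 active = z-score of -3 or lower and OD600 up to 0.18 on both plates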;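 also: plate controls were untreated cells for no effect and reference antibiotic for full effect; stock transfer was 100 nL into about 80 µL; one replicate is shown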
# Sa ugtP lethal – kills S. aureus RN4220 lacking UgtP | S. aureus RN4220 ugtP deletion, OD600 growth, 16 h; some inactives read as strong as hits | growth inhibition, % (test concentration not listed) | 330,000 compounds, 0.54% hits | AID 1259309;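 active = z-score under -3 and OD600 up to 0.15 on both plates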;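 also: plate controls were untreated wells for no effect and antibiotic for full effect; wells of about 80 µL received 100 nL stock; the first replicate is given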
# Mtb hypoxia rep – Mtb hypoxia fluorescent reporter inhibition | M. tuberculosis hypoxia-regulated fluorescent reporter, fluorescence | fluorescence inhibition, % (no concentration beside the values) | 300,000 compounds, 0.1% hits | AID 1159583;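 active = 35 to 45% if threefold the growth effect, above 45% if 1.5-fold the growth effect; inactive = the rest, general growth blockers included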;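 also: wells of about 50 µL received 100 nL stock; 0% = vehicle wells and 100% = reference inhibitor wells; whole bacteria with a GFP reporter of the hypoxia response; strong numbers were not always called active; many hits fall short of the cut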
# PrP 5UTR inh – inhibition of PrP 5' UTR reporter expression; cell-based PrP 5' UTR mRNA reporter, plate reader; inhibition, % (test concentration not listed); 340,000 compounds, 0.35% hits;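 active = every replicate at 50% or more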;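 also: 0 = median of the neutral control wells; tested in H4 reporter cells; numbers are from one replicate; inactives centre near -14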
# BJeLR lethal – BJeLR cell viability loss. BJeLR (HRASV12) viability, CellTiter-Glo ATP luminescence, 48 h; reference of the scale not given here. inhibition, % (no concentration beside the values). 300,000 compounds, 0.17% hits. AID 1554;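 active = replicate mean above 50%; inconclusive = above 50% but judged a plate artefact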;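 also: 50 nL library stock added to about 25 µL; numbers are from one replicate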
# Bead autofluor – counter-screen for toxin protease inhibitors: compound fluorescence; 360,000 compounds, 3.1% hits; compound autofluorescence counterscreen, microsphere flow cytometry; stronger effect = higher value; fluorescence intensity (concentration not given with the values);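 active = at least 3 SD above the mean of all compounds, about 16000 in these data; inconclusive = too few beads counted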;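 also: 100 nL of 1 mM stock went into each well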
# Mtb hypoxia rep growth – second read-out of Mtb hypoxia rep, no call of its own (marks repeat the call); growth inhibition, %; measured here: M. tuberculosis growth (absorbance);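 0% = vehicle and 100% = reference antibiotic; read after six days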
# * hit, by the source's call; ? = inconclusive; . = no result given; & = joins results of further samples.
# Below each SMILES: PrP 5UTR inh	RN4220 kill	Sa ugtP lethal	Mtb hypoxia rep	Bead autofluor	Mtb hypoxia rep growth	BJeLR lethal
[1] Cc1cc(-c2nnc(SCC(=O)Nc3ccc(F)c(F)c3)n2N)n[nH]1
    -7	4.3	7	3	6128	2	-6
[2] CN(C)c1ccc(S(=O)(=O)NCC(=O)NCC2CCCCC2)cc1[N+](=O)[O-]
    -3	4.6	3	15	6075	9	-2
[3] Cc1ccc(S(=O)(=O)N2CCN(C(=O)CSc3nnnn3C)CC2)c(C)c1
    -18	1.1	4	6	4756	1	4
[4] Cc1ccc(CNC(=O)CCCc2nc3ccccc3s2)cc1
    -17	-0.2	16	9	2501	6	8
[5] C/C(=N\NC(=O)c1ccc(Cl)cc1)c1ccc(Br)s1
    8	.	.	.	3843	.	-6
[6] COc1ccc(-n2c(SCC(=O)Nc3ccccc3)nc(O)cc2=O)cc1
    -18	2.3	4	8	4441	2	-2
[7] CC(C)Cc1ccc(C(C)C(N)=Nc2ccc(O)cc2)cc1 (configuration not stated)
    -6	-0.9	-7	17	3783	13	1
[8] COc1ccc(S(=O)(=O)N(CC(=O)NCc2ccco2)C2CCCCC2)cc1OC
    -4	4.6	-6	1	10636	6	2
[9] OCCN1CCN(c2ncnc3c2sc2nc(N4CCOCC4)c4c(c23)CCC4)CC1
    -2	3.3	-1	11	8978	9	0
[10] C(=C\N1CCCCCC1)/c1nnnn1-c1ccc(-c2ccccc2)cc1
    -1	4.3	0	8	5483	4	13
[11] CCOC(=O)c1c(NC(=O)CCC(=O)NCc2ccco2)sc2c1CCCC2
    -22	1.2	19	5	8030	4	-7
[12] O=S(=O)(/N=C(/Nc1ccc(F)cc1F)c1ccc(Cl)cc1)c1ccccc1
    -26	-6.0	-4	10	3269	8	1
[13] CC(C)c1ccc(/C=N/NC(=O)c2cc(-c3cccc([N+](=O)[O-])c3)n[nH]2)cc1
    -2	.	.	.	3155	.	-14
[14] C=C1CC[C@@H]2[C@](C)(CCC[C@@]2(C)/C=C/[C@@H](O)C(C)(C)O)[C@H]1CC(=O)NCCS(=O)(=O)O
    10	2.6	1	-2	3629	6	.
[15] CCN1CCN(Cc2ccc(C)cc2)CC1
    -22	1.5	0	-5	9073	10	4
[16] Cc1ccc(S(=O)(=O)N2C(c3ccc(Cl)cc3)CC=C(C(=O)O)C2c2ccccc2F)cc1 (configuration not stated)
    .	19	72	10	.	7	.
[17] Cc1cnc(C(=O)OC(C(=O)c2c[nH]c3ccccc23)c2ccccc2)cn1 (configuration not stated)
    -7	0.9	5	7	5471	6	-13
[18] CCOC(=O)c1ccc(NC=C2C(=O)OC3(CCCCC3)OC2=O)cc1
    -18	-0.6	-2	.	2036	.	-5
[19] CCn1cc(CN2CCC(n3nccc3NC(=O)CCc3ccccc3)CC2)cn1
    1	-1.5	-2	-11	?	-6	8
[20] N#C/C(C(=O)c1ccccc1)=C1/CCCCCN1
    -53	-0.2	3	.	3802	.	3
[21] COc1ccc(N(CC(=O)NCCSc2ccccc2)S(C)(=O)=O)cc1
    -20	-5.7	-4	-3	2198	0	-1
[22] COc1ccccc1N1CCN(C(=O)Nc2ccc(F)c(Cl)c2)CC1
    -28	-1.0	4	-1	2530	1	-6
[23] Cn1cc(CCC(=O)NCCCc2ccccc2)c2ccccc21
    -21	5.5	18	1	3846	5	-4
[24] O=C(CCC(=O)N/N=C/c1ccc(Br)o1)N/N=C/c1ccc(Br)o1
    2	.	.	.	4167	.	-8
[25] CCOc1ccc(/C=C2\SC(=S)N(N3C(=O)C4CC4C3=O)C2=O)cc1 (configuration not stated)
    -20	4.7	60	-5	2455	5	-11
[26] C[N+]1(C2CCC3CCCC2C3O)CCCCC1 (configuration not stated)
    0	6.3	5	4	2772	-5	-3
[27] CC(C)NC(=O)C(C)Oc1ccc(S(=O)(=O)NCc2ccc3c(c2)OCO3)cc1 (configuration not stated)
    -17	4.1	10	-2	3833	5	9
[28] CCOC(=O)Cc1nnn(CC(=O)OCC)n1
    -20	-8.0	-1	4	2527	8	0
[29] Cc1nc2scc(C)n2c(=O)c1S(=O)(=O)NC(C)c1ccccc1 (configuration not stated)
    -12	3.9	6	7	4230	0	13
[30] O=C(N/N=C/c1cc2c(cc1Cl)OCO2)c1cccc(Br)c1
    -44	.	.	.	4808	.	11
[31] C=CCNc1nc(N)c([N+](=O)[O-])c(NCc2ccccc2)n1
    4	4.3	4	7	3838	5	-4
[32] COc1cc(/C=C2\SC(=N)N(c3ccc(F)cc3)C2=O)ccc1O
    -22	9.3	-8	4	2294	10	-3
[33] CCCCOCCCNC(=O)C1CCCCC1
    -25	3.1	5	22	4360	20	.
[34] CCOc1ccccc1/C=N/NC(=O)CNC(=O)c1ccc(S(=O)(=O)N2CCOCC2)cc1
    0	.	.	.	9672	.	-1
[35] C/C=C/C=C/C(=O)O
    -27	5.3	10	5	5068	1	.
[36] CCCOc1ccc(OCCOCCN2CCc3ccccc3C2)cc1
    -9	6.4	3	21	10161	6	-2
[37] CCOC(=O)c1ccc(-n2c(=O)[nH]c3ccccc3c2=O)cc1
    -18	0.0	1	.	4783	.	2
[38] Cc1cc(C)c(C#N)c(Oc2ccc(F)cc2)n1
    -7	-1.9	4	9	.	7	-11
[39] O=C(Nc1ccc(F)cc1)N(Cc1cccs1)Cc1cc2cc3c(cc2[nH]c1=O)OCO3
    -5	-1.6	-23	4	2228	6	7
[40] CN1CCN(Cc2cc(=O)n3ccsc3n2)CC1
    -20	-2.1	1	-2	6066	-1	1

# Part of the list above, in transposed form:
[33] CCCCOCCCNC(=O)C1CCCCC1
[34] CCOc1ccccc1/C=N/NC(=O)CNC(=O)c1ccc(S(=O)(=O)N2CCOCC2)cc1
Compound | 33 | 34
PrP 5UTR inh | -25 | 0
RN4220 kill | 3.1 | .
Sa ugtP lethal | 5 | .
Mtb hypoxia rep | 22 | .
Bead autofluor | 4360 | 9672
Mtb hypoxia rep growth | 20 | .
BJeLR lethal | . | -1

# Going on with the list:
# Below each SMILES: PrP 5UTR inh	RN4220 kill	Sa ugtP lethal	Mtb hypoxia rep	Bead autofluor	Mtb hypoxia rep growth	BJeLR lethal
[41] NC(=O)c1ccc(NC(=O)CN2CCOCC2)cc1
    9	2.9	13	1	.	-3	10
[42] COc1cc(/C=N/NC(=O)c2cccnc2)ccc1OC(=O)c1ccc([N+](=O)[O-])cc1
    -3	.	.	.	3962	.	0
[43] Cc1cc(OCC(=O)NC2CCN(Cc3ccccc3)CC2)c2c(C)cc(=O)oc2c1
    -9	0.9	7	-2	5098	2	0
[44] C[c-]1[c-](C)[c-](C)[c-](C)[c-]1C.[Fe].c1cc2nccc(N3CCCC3)[c-]2c1 (configuration not stated)
    -13&-5	6.0	4	9	3228&2976	3	2
[45] COC(C(=O)N/N=C(\C)c1ccc(O)cc1)c1ccccc1 (configuration not stated)
    -20	.	.	.	3092	.	2
[46] CCCOC(c1ccccc1)(c1ccccc1)C(Oc1nc(C)cc(C)n1)C(=O)O (configuration not stated)
    -24	0.2	9	8	3472	9	6
[47] CC(=O)Oc1ccc(NC(=O)C2CCCCC2)c(C(=O)O)c1
    -16	5.0	0	-5	20737*	5	.
[48] Cc1ccc(NC(=S)c2ccncc2)c(C)c1
    -2	2.9	8	7	6292	-4	-7
[49] Cc1ccc(-n2nc(-c3ccccc3)cc2Nc2ccccc2N)cc1
    -5	2.3	12	6	2661	0	5
[50] CC1=NN(c2cccc(Cl)c2)C(=O)C1
    -6	8.0	3	15	4408	5	-2
[51] COC(=O)C1=C(N)OC2=C(C(=O)CC(C)(C)C2)C1c1cc2c(cc1Cl)OCO2 (configuration not stated)
    -26	2.1	-3	5	3750	11	-9
[52] COc1cc(OC)cc(C(=O)NC2CCN(CCCOc3ccccc3)CC2)c1
    -22	0.4	2	3	4192	2	1
[53] CC(O)C1CNC(=O)C(=O)N1CCC12CC3CC(CC(C3)C1)C2 (configuration not stated)
    .	2.2	-1	3	.	4	.
[54] Cc1ccc(-c2cc(-c3ccccc3)no2)c(O)c1
    -88	15	11	15	2614	9	-1
[55] CCOc1ccc2cc(C(=O)NCc3ccccc3)c(=N)oc2c1
    -18	6.6	5	8	2989	4	10
[56] Cc1cc(F)ccc1S(=O)(=O)N1CCCOC1CNC(=O)C(=O)NCCN1CCOCC1 (configuration not stated)
    -19	1.5	-1	-1	5426	-6	-2
[57] COc1ccccc1CNC(=O)C1CCN(S(=O)(=O)c2ccc3c(c2)C(C)(C)C(=O)N3C)CC1
    -14	1.2	11	2	5871	-2	14
[58] Cc1cc2c([nH]c3ccccc32)c2c1OC(C)(C)C=C2
    -52	1.4	22	.	5750	.	10
[59] CCOC(=O)c1ccc(CC2SC(N)=NC2=O)cc1 (configuration not stated)
    -17	3.0	0	10	3541	3	-19
[60] COc1ccccc1C(=O)N/C(=C\c1cn(S(=O)(=O)N(C)C)c2ccccc12)C(=O)N1CCOCC1
    -28	0.3	3	14	5751	1	-5
[61] CC(=O)Nc1ccc(SCC(Cc2ccccc2)N2CCC(C(C)(C)C)CCC2=O)cc1 (configuration not stated)
    .	-5.7	-3	-4	.	5	.
[62] Nc1ccc(Cl)c(S(=O)(=O)Nc2cccc(Cl)c2)c1
    -20	8.7	-6	17	4871	5	0
[63] CCOc1cccc2sc(N(CCCN(C)C)C(=O)Cc3ccccc3)nc12
    -8	3.7	9	2	4261	16	-2
[64] O=C(O)c1ccccc1NS(=O)(=O)c1cccc(-n2sc3ccccc3c2=O)c1
    -15	17	-5	-5	5523	-11	-5
[65] CN(c1ccccc1)S(=O)(=O)c1ccc(NC(=O)C2CC2)cc1
    -14	9.5	14	13	4360	12	1
[66] Cn1c2c(c(=O)n(C)c1=O)C(C(F)(F)F)(C(F)(F)F)N=C(c1ccc(Cl)cc1)N2
    17	57	48	.	10881	.	33
[67] CC(=O)/C=C\c1cn(-c2ncc(C(F)(F)F)cc2Cl)c2ccccc12
    -8	11	18	.	2379	.	-1
[68] Cc1cc2c(c(=O)n1CC1CCCO1)C(c1ccco1)C(C#N)=C(N)O2 (configuration not stated)
    -23	6.6	-5	0	6189	7	4
[69] O=C(CCC(=O)N1C[C@H]2C[C@@H](C1)c1cccc(=O)n1C2)NCc1ccccc1C(F)(F)F
    3	2.5	-1	8	5728	10	.
[70] CO/N=C(\Cn1ncc(N2CCOCC2)c(Br)c1=O)c1ccc(Cl)cc1
    -14	.	.	.	3402	.	0
[71] CCOc1ccc(C(CC(=O)O)NC(=O)C23CC4CC(CC(C4)C2)C3)cc1 (configuration not stated)
    -8	3.6	4	9	21930*	11	0
[72] CC(C)c1nc2ccccc2n1CC(O)COC1CCCCC1 (configuration not stated)
    -4	6.5	7	9	4136	9	0
[73] O=C(CCC(=O)N1CCN(Cc2ccc(F)cc2)CC1)Nc1nnc(C2CCCCC2)s1
    -3	3.9	15	5	6105	0	-6
[74] C=CCN(CC=C)Cc1c(C)[nH]c2ccc(C(=O)OCC)cc2c1=O
    -14	1.0	8	21	11305	7	-10
[75] O=C(CC1CCCCC1)NCc1cn2ccsc2n1
    -3	1.5	3	5	2914	16	-25
[76] Cc1ccc2cc(CN(Cc3ccco3)C(=O)c3ccccc3)c(=O)[nH]c2c1C
    -3	8.8	2	14	3481	8	-18
[77] O=Cc1ccc(N2CCCCCC2)cc1
    -8	2.6	-6	.	6650	.	6
[78] COc1ccc(-c2csc3ncnc(NCCO)c23)cc1
    29	2.3	-4	-7	3913	5	5
[79] CC1CCC(NC(=O)C2CCC(CNS(=O)(=O)c3ccccc3)CC2)CC1 (configuration not stated)
    -19	4.3	4	0	3680	0	11
[80] CCC(=O)N(CCC(c1ccc(C)cc1)c1ccco1)Cc1ccco1 (configuration not stated)
    -6	2.2	5	4	3515	-6	-3
[81] Cc1ccc(S(=O)(=O)N(CC(=O)Nc2ccccc2C(=O)O)c2ccccc2C)cc1
    2	.	.	.	2101	.	9
[82] O=C(COC(=O)c1ccccn1)NCc1cccs1
    -15	1.6	4	3	?	1	-1
[83] O=C(NNS(=O)(=O)c1ccc(Cl)cc1)c1ccc(S(=O)(=O)N2CCCCC2)cc1
    -35	5.8	0	3	2413	3	-3
[84] COc1cccc(/C=C/C(=O)Nc2cccc(C(C)=O)c2)c1OC
    -52	3.6	7	18	4427	13	-2
[85] Cc1cc2c(cc1S(=O)(=O)N1CCN(c3ccccc3)CC1)OCCN2C
    -19	3.3	1	2	5725	2	7
[86] CCOC(=O)CNS(=O)(=O)CCN1C(=O)c2ccccc2C1=O
    -23	3.0	-1	2	10083	-3	-4
[87] Cc1cc(/C=N/n2cnnc2)c(C)n1-c1ccc(OCc2ccc(Cl)cc2Cl)cc1
    35	.	.	.	2681	.	12

# Screening data deposited in PubChem by several laboratories.
